Calb biofilm kill – clotrimazole potentiators killing C. albicans biofilm, primary screen, 4-compound mixtures. C. albicans biofilm persisters + clotrimazole, fluorescence viability; primary screen in compound mixtures of four per well. AID 1242, 2008. 120,000 compounds, 0.02% hits. inhibition, % at 7.6 µM;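 active = inhibition above 30.3% in the primary screen of four-compound pools, then above 30% when the compound was retested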;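 also: compounds exposed to preformed 24 h biofilms for 48 h; the number belongs to the whole pool; some results filed as inactive read as strong as hits; inactives centre near 12; 0% = biofilm with clotrimazole alone and 100% = kill control; retested singly at about 60 µM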
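Test system: C. albicans CAF4-2 wild-type biofilms; buffer or medium: RPMI/MOPS medium, pH 7.0; schedule: 24 h biofilm formation, then 48 h compound exposure, 37 °C; detection: Alamar Blue fluorescence; measure: percent inhibition of biofilm viability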
The depositor's hits bear a star.

How did CCc1ccccc1NC(=S)N(CCCN(C)C)Cc1cc2cc3c(cc2[nH]c1=O)OCO3 do in these assays?
Calb biofilm kill: 2

How did Fc1ccc2nc(Nc3nc4cc5c(cc4s3)OCO5)sc2c1 do in these assays?
Calb biofilm kill: -11

Results for CC(=O)NCCC(=O)N1CCc2c([nH]c3ccccc23)C1c1cccc(Cl)c1 (centres undefined) ?
Calb biofilm kill: -5

How did CCCOc1ccc(C(=O)NCC(c2ccco2)N(C)C)cc1 (centres undefined) do in these assays?
Calb biofilm kill: 7

How did Clc1ccccc1-c1nc2ccccc2c2nc3ccccc3n12 do in these assays?
Calb biofilm kill: 11

How did Cc1ccc(NC(=O)CSc2ccc3nnc(CCNC(=O)c4ccccc4)n3n2)c(C)c1 do in these assays?
Calb biofilm kill: 22

What do the screens show for `CCN1CCN(c2ccc(NC(=O)c3cnccn3)cc2)CC1`?
Calb biofilm kill: 7

How did COc1ccc(CCn2c(=S)[nH]c3ccc(N4CCOCC4)cc3c2=O)cc1OC do in these assays?
Calb biofilm kill: 7

What do the screens show for `O=[N+]([O-])c1ccc(SCCO)nc1SCCO`?
Calb biofilm kill: -3

Results for Cc1cc(/C=C2/C(=N)N3C(=NC2=O)SN=C3S(C)(=O)=O)c(C)n1-c1ccccc1F ?
Calb biofilm kill: -1

How did NS(=O)(=O)c1ccc(NCc2cc(Cl)ccc2OCc2ccc(F)cc2)cc1 do in these assays?
Calb biofilm kill: 9

Results for COc1ccccc1OCCOC(=O)Nc1ccccc1 ?
Calb biofilm kill: 13

What do the screens show for `COc1ccc2cc(C(=O)NCCO)sc(=O)c2c1OC`?
Calb biofilm kill: -8

What do the screens show for `Cc1ccc(S(=O)(=O)N2CC=C(C(=O)NCCC(C)C)CC2)cc1`?
Calb biofilm kill: 14

Results for COc1ccc2c(c1)C(C)CC(C)(C)N2C(=O)NC1CCCCC1 (centres undefined) ?
Calb biofilm kill: 20

Results for CCN(CC)C(=O)C1=C(C)Nc2ncnn2C1c1cccnc1 (centres undefined) ?
Calb biofilm kill: 19

What do the screens show for `COc1cc(NS(=O)(=O)c2ccc(N/C=C(\C=O)c3nc4ccccc4o3)cc2)nc(OC)n1`?
Calb biofilm kill: 9

How did Cc1ccc(N2C(=O)CC(N3CCN(c4ccccn4)CC3)C2=O)cc1 (centres undefined) do in these assays?
Calb biofilm kill: 14

What do the screens show for `O=C(Nn1cnnc1)c1cc(-c2cccc(Br)c2)nc2ccccc12`?
Calb biofilm kill: 17

What do the screens show for `COc1cccc2[nH]c3c(Cl)ncnc3c12`?
Calb biofilm kill: 14

Results for Cc1nnc(SCc2cc(=O)[nH]c(/N=C(\N)Nc3ccccc3Sc3ccccc3)n2)s1 ?
Calb biofilm kill: 14

What do the screens show for `CCNc1nc(CSc2ccccc2)nc2sc(C)c(C)c12`?
Calb biofilm kill: 9

Results for COc1ccc(/C=C/C(=O)O)cc1COc1ccccc1C ?
Calb biofilm kill: 13

What do the screens show for `O=C(CSc1nccc(=O)[nH]1)N1N=C2/C(=C/c3ccco3)CCCC2C1c1ccco1` (centres undefined)?
Calb biofilm kill: 6

Results for Cc1cc(NC(=O)Cn2cnc3sc(C)c(-c4ccccc4)c3c2=O)no1 ?
Calb biofilm kill: 13

How did CN1CCN(c2ccc(NC(=O)c3sc4ccccc4c3Cl)cc2)CC1 do in these assays?
Calb biofilm kill: 12

Results for C/C(=N\NC(=O)c1cccnc1)c1cc2ccccc2o1 ?
Calb biofilm kill: -8

Results for COc1ccc(-n2c(=O)c3ccccc3n(CC(=O)OCc3ccccc3)c2=O)cc1OC ?
Calb biofilm kill: 9

How did Cc1cc(NC(=O)CSc2nnc(C)n2-c2ccccc2)no1 do in these assays?
Calb biofilm kill: -6

What do the screens show for `COc1ccc(Cl)cc1NC(=O)C(C)N(C)Cc1ccc(C(F)(F)F)cc1` (centres undefined)?
Calb biofilm kill: 18

Results for CCCCSc1nc(O)cc(=O)n1CC ?
Calb biofilm kill: 4

How did COc1ccc(-c2nc[nH]c2[N+](=O)[O-])cc1 do in these assays?
Calb biofilm kill: 19

What do the screens show for `CCOC(=O)C1=C(C)N(CCCC(=O)NCc2ccc3c(c2)OCO3)C(=O)NC1c1ccc(Br)cc1` (centres undefined)?
Calb biofilm kill: 4

Results for O=c1cc(-c2ccccc2Cl)oc2c(NS(=O)(=O)c3ccccc3C(F)(F)F)ccc(O)c12 ?
Calb biofilm kill: 7

What do the screens show for `CSCCCNC(=S)Nc1cccc(S(=O)(=O)NC2=NCCC2)c1`?
Calb biofilm kill: 1

Results for CC(C)(C)NC(=S)NCC1CC1 ?
Calb biofilm kill: 7

What do the screens show for `CC1CCCCN1C(C(=O)O)c1ccccc1` (centres undefined)?
Calb biofilm kill: 7

How did COc1cccc(/C=N/NC(=O)Cn2cnc3c2c(=O)n(C)c(=O)n3C)c1OC do in these assays?
Calb biofilm kill: 30

What do the screens show for `COC(=O)c1cc(C)sc1NC(=O)C1C2C=CC(CC2)C1C(=O)O` (centres undefined)?
Calb biofilm kill: 10

Results for COc1ccc(C(=O)C2CCCN(C(=O)/C=C/c3ccccn3)C2)c(C)c1 (centres undefined) ?
Calb biofilm kill: 8

The closing 2 compounds of the part above open the next one:
What do the screens show for `COC(=O)c1cc(C)sc1NC(=O)C1C2C=CC(CC2)C1C(=O)O` (centres undefined)?
Calb biofilm kill: 10

Results for COc1ccc(C(=O)C2CCCN(C(=O)/C=C/c3ccccn3)C2)c(C)c1 (centres undefined) ?
Calb biofilm kill: 8

Results for CC(NC(=O)COC(=O)c1ccc(Cl)cc1O)c1ccc(F)cc1 (centres undefined) ?
Calb biofilm kill: 12

Results for Cc1ccc(CC2C(=O)N(c3nc(C)cc(C)n3)C(=O)C2C)cc1 (centres undefined) ?
Calb biofilm kill: 18

How did O=C(O)c1c2c(nc3ccccc13)/C(=C/c1ccc(O)cc1)CCC2 do in these assays?
Calb biofilm kill: 12

What do the screens show for `CCOC(=O)C1CCCN(S(=O)(=O)c2ccc(S(N)(=O)=O)cc2)C1` (centres undefined)?
Calb biofilm kill: 20

What do the screens show for `Cc1cc(-c2ccccc2)nc(SCC(=O)N2CCCC2)n1`?
Calb biofilm kill: 17

Results for Brc1ccc2nc(N3CCN(c4ccccc4)CC3)sc2c1 ?
Calb biofilm kill: 5

What do the screens show for `COc1ccccc1C(=O)N/C(=C\c1ccc(Br)cc1)C(=O)NCCCO`?
Calb biofilm kill: 8

Results for O=C1NC(=S)N/C1=C/c1cc([N+](=O)[O-])ccc1N1CCOCC1 ?
Calb biofilm kill: 2

How did Cc1ccc(O)c(CP(=O)(c2ccccc2)c2ccccc2)c1 do in these assays?
Calb biofilm kill: 5

What do the screens show for `Cc1cccc(OCCNc2ccc([N+](=O)[O-])cn2)c1`?
Calb biofilm kill: 5

How did COc1ccc(Nc2c([N+](=O)[O-])ccc3c2=NC2(CCCCC2)N=3)cc1 do in these assays?
Calb biofilm kill: 8

Results for CCC(=O)c1ccc(OCC(O)CNC(C)c2ccccc2)cc1 (centres undefined) ?
Calb biofilm kill: 23

What do the screens show for `COc1ccc(NC(=O)N(Cc2cc3cc(C)ccc3[nH]c2=O)CC2CCCO2)cc1` (centres undefined)?
Calb biofilm kill: 18

Results for COC(C[C@H](O)[C@H](C)[C@@H](O)COCc1ccccc1)OC ?
Calb biofilm kill: 22

Results for CC1(NC(=O)NCc2ccccc2)CCS(=O)(=O)C1 (centres undefined) ?
Calb biofilm kill: 28

How did CC1CCc2nc3ccccc3c(C(=O)OCC(=O)N(C)C3CCS(=O)(=O)C3)c2C1 (centres undefined) do in these assays?
Calb biofilm kill: 0

Results for O=C(Cc1ccccc1)NCC(=O)OCC(=O)c1cccc([N+](=O)[O-])c1 ?
Calb biofilm kill: 11

How did NC(=O)COC(=O)CN1C(=O)C2CCCCC2C1=O (centres undefined) do in these assays?
Calb biofilm kill: 1

How did Cc1nc(NC(=O)c2ccc3c(c2)OCO3)ccc1Br do in these assays?
Calb biofilm kill: 13

Results for COc1ccc(C)cc1S(=O)(=O)N(C)CC(=O)N1CCCCC1 ?
Calb biofilm kill: 6

How did CCOCCCNC(=O)/C(C#N)=C/c1cc(OC)c(O)c([N+](=O)[O-])c1 do in these assays?
Calb biofilm kill: 14

Results for Cc1nc(SCC(=O)N2CC(=O)Nc3ccccc32)nc(C)c1C ?
Calb biofilm kill: -1

Results for CC(=O)OC(C)CS(=O)(=O)c1ccccc1 (centres undefined) ?
Calb biofilm kill: 12

How did CCN(CC)S(=O)(=O)c1ccc(NN=C2CCN(C(C)C)CC2)c([N+](=O)[O-])c1 do in these assays?
Calb biofilm kill: 32

Results for N#Cc1cc(O)c(-n2nnc3ccccc32)cc1C#N ?
Calb biofilm kill: 16

Results for CC(NC(=O)c1ccco1)C(=O)OC(C)C(=O)NCc1ccccc1 (centres undefined) ?
Calb biofilm kill: 7

What do the screens show for `O=C(N/N=C/c1ccsc1)c1ccc2ccccc2n1`?
Calb biofilm kill: 43

How did CCCc1cc(=O)[nH]c(SCC(=O)c2[nH]c(C)c(C(=O)OCC)c2C)n1 do in these assays?
Calb biofilm kill: 3

How did CCC1=C(OC(=O)N(CC)CC)N2C(=O)OC(=NCCOC)[C@]2(Cc2ccccc2)[C@H]2C1=CC[C@H]1C(=O)N(CC)C(=O)[C@H]12 do in these assays?
Calb biofilm kill: 16

How did CCCc1c(C)nc2c(OC)cccc2c1SCC(=O)O do in these assays?
Calb biofilm kill: 23

How did NC(=O)CC(NC(=O)Cc1cccc2ccccc12)c1ccc(NCCc2ccc(F)cc2)c([N+](=O)[O-])c1 (centres undefined) do in these assays?
Calb biofilm kill: 14

What do the screens show for `O=C(NCCN1CCOCC1)c1ccc(CSCc2cccc(Cl)c2)o1`?
Calb biofilm kill: 21

How did Cc1c(/C=N\NC(=O)c2cccc(F)c2)cnn1C do in these assays?
Calb biofilm kill: 13

How did COCCNC(=O)/C(C#N)=C/C=C/c1ccccc1 do in these assays?
Calb biofilm kill: -4

How did O=C(NC(=S)Nc1ccccc1O)c1ccc(Cl)cc1Cl do in these assays?
Calb biofilm kill: 6

Results for CC(=O)NC(=S)Nc1ccc(NC(=O)c2cccs2)cc1 ?
Calb biofilm kill: 6

How did O=c1c2nncn2c2cccnc2n1CCNc1ncc(C(F)(F)F)cc1Cl do in these assays?
Calb biofilm kill: 22

How did COc1ccc(NC(=O)c2cc3c(s2)CCC(C)C3)cc1S(=O)(=O)N1CCOCC1 (centres undefined) do in these assays?
Calb biofilm kill: 16

How did CCCOC(=O)Nc1ccc(S(=O)(=O)Nc2ncccn2)cc1 do in these assays?
Calb biofilm kill: 26

What do the screens show for `COc1ccc(CN2CCN(c3ccc(F)cc3)CC2)c(OC)c1OC`?
Calb biofilm kill: 11

Looked up by structure from the entries so far (6):
What do the screens show for `O=C(NCCN1CCOCC1)c1ccc(CSCc2cccc(Cl)c2)o1`?
Calb biofilm kill: 21

How did O=c1c2nncn2c2cccnc2n1CCNc1ncc(C(F)(F)F)cc1Cl do in these assays?
Calb biofilm kill: 22

How did Cc1c(/C=N\NC(=O)c2cccc(F)c2)cnn1C do in these assays?
Calb biofilm kill: 13

What do the screens show for `COc1ccc(CN2CCN(c3ccc(F)cc3)CC2)c(OC)c1OC`?
Calb biofilm kill: 11

How did COCCNC(=O)/C(C#N)=C/C=C/c1ccccc1 do in these assays?
Calb biofilm kill: -4

How did COc1ccc(NC(=O)c2cc3c(s2)CCC(C)C3)cc1S(=O)(=O)N1CCOCC1 (centres undefined) do in these assays?
Calb biofilm kill: 16

Continuation:
Results for c1ccc(COC2CCCN(Cc3nc(-c4cnccn4)no3)C2)nc1 (centres undefined) ?
Calb biofilm kill: 6

How did O=C(Oc1ccc2c(-c3ccccc3)cc(=O)oc2c1)c1cccs1 do in these assays?
Calb biofilm kill: 11

What do the screens show for `CCOC(=O)C1CCCN(Cc2c(C(=O)N3CCOCC3)nc3ccccn23)C1` (centres undefined)?
Calb biofilm kill: -1

Results for CN(C)C(=O)C[n+]1ccc(C(N)=O)cc1 ?
Calb biofilm kill: 24

How did COc1ccc(NC(=O)CN2CC(C)OC(C)C2)cc1Cl (centres undefined) do in these assays?
Calb biofilm kill: 8

What do the screens show for `COCCN1C=C2C(=O)C(C)(OC(=O)C3CCCC3)C(=O)C(c3ccccc3)=C2C=C1CCCC(=O)OC` (centres undefined)?
Calb biofilm kill: 7

How did NS(=O)(=O)c1ccc(N2CCCCCC2)c([N+](=O)[O-])c1 do in these assays?
Calb biofilm kill: 13

Results for CSc1nsc(/C=C/Nc2ccc(O)cc2C)c1C#N ?
Calb biofilm kill: 16

What do the screens show for `Cc1ccc(NC(=O)Nc2nnc(-c3ccncc3)s2)cc1C`?
Calb biofilm kill: 21

How did CC(=O)c1sc(N2CCOCC2)nc1-c1ccccc1 do in these assays?
Calb biofilm kill: 10

Compounds listed so far containing a furan ring, fused or not (5):
How did CCCOc1ccc(C(=O)NCC(c2ccco2)N(C)C)cc1 (centres undefined) do in these assays?
Calb biofilm kill: 7

What do the screens show for `O=C(CSc1nccc(=O)[nH]1)N1N=C2/C(=C/c3ccco3)CCCC2C1c1ccco1` (centres undefined)?
Calb biofilm kill: 6

Results for C/C(=N\NC(=O)c1cccnc1)c1cc2ccccc2o1 ?
Calb biofilm kill: -8

Results for CC(NC(=O)c1ccco1)C(=O)OC(C)C(=O)NCc1ccccc1 (centres undefined) ?
Calb biofilm kill: 7

What do the screens show for `O=C(NCCN1CCOCC1)c1ccc(CSCc2cccc(Cl)c2)o1`?
Calb biofilm kill: 21

(next part)
How did COc1ccc(N=C2SC(CC(=O)Nc3ccccc3OC)C(=O)N2Cc2ccco2)cc1 (centres undefined) do in these assays?
Calb biofilm kill: 8

What do the screens show for `O=C(N/N=C/c1ccccc1)c1ccc(CN2C(=O)c3cccc4cccc2c34)cc1`?
Calb biofilm kill: 11

How did CN(C(=O)COC(=O)c1ccc(Cl)c(N)c1)c1ccccc1 do in these assays?
Calb biofilm kill: 6

What do the screens show for `CC(Oc1ccc(Cl)cc1)c1ccnc(N)n1` (centres undefined)?
Calb biofilm kill: -4

Source: PubChem (PCMD)

The list is partial; rates above refer to the full screens.
